Mtb growth: Mycobacterium tuberculosis H37Rv growth inhibition, cell based, confirmatory dose response (AID 1949). most inactive calls were filed without a number and no value below 0 was filed. one-dose inhibition, % at 10 µg/mL; IC50 in µg/mL for titrated hits. 100,000 tested, 1.6% active;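 active = confirmed in a dose series; inconclusive = about 50% or more but not retested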;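 note: bacteria grown 7 days with compound before Alamar blue readout; 0% = untreated bacteria and 100% = reference antibiotic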
* = called active by the depositor. An excerpt; rates above refer to the full screens.

Screening CCC1CCc2c(sc(NC(=O)c3c(Cl)cccc3Cl)c2C(=O)OC)C1 (stereo not given) returned Mtb growth 2%.
`COC(=O)COc1cccc2c1OC(C)(C)C2` gave Mtb growth inactive.
For O=C(Nc1ccccc1F)c1ccc(-c2cccc([N+](=O)[O-])c2)o1 the results were Mtb growth inactive.
`CCn1c(-c2ccccc2O)n[nH]c1=S` gave Mtb growth 1%.
For C=CCNc1oc(-c2ccc(C)cc2)nc1C#N the results were Mtb growth inactive.
For O=C(CCN1C(=O)c2ccccc2C1=O)Nc1nncs1 the results were Mtb growth inactive.
For O=C(Nc1ccc(S(=O)(=O)N2CCCCCC2)cc1)c1ccc([N+](=O)[O-])cc1 the results were Mtb growth inactive.
Screening CCC(C(=O)Nc1ccc(NS(=O)(=O)c2ccc(C)cc2)cc1)c1ccccc1 (stereo not given) returned Mtb growth 36%.
`CNC(=S)N1CCN(C(=O)c2ccco2)CC1` gave Mtb growth inactive.
For CCN1CCN(CCCSc2ccc(C)cc2)CC1 the results were Mtb growth inactive.
Screening CN(C)S(=O)(=O)c1ccc2nc(NC(=O)c3cccs3)sc2c1 returned Mtb growth 32%.
S=C(NCCc1ccccc1)N1CCN(c2ccccc2)CC1 was read as Mtb growth inactive.
`CCOC(=O)c1cc(-c2ccccc2)sc1NC(=O)c1ccncc1` gave Mtb growth inactive.
Cc1nnc(NC(=O)c2ccc(Br)o2)s1 was read as Mtb growth inactive.
Screening CCc1ccc(CC)c(S(=O)(=O)NC(CC(=O)O)c2ccccc2)c1 (stereo not given) returned Mtb growth inactive.
COc1ccc(-c2cc(C(=O)O)[nH]n2)cc1 was read as Mtb growth inactive.
For COCCNCCOc1ccc(C)cc1Br the results were Mtb growth inactive.
Screening CC(=O)N1CC(=O)N(c2ccccc2)C1=O returned Mtb growth inactive.
Screening CC1CCc2c(sc3ncn(Cc4ccc(F)cc4)c(=O)c23)C1 (stereo not given) returned Mtb growth 10%.
`COc1ccc(Cl)cc1N(CC(=O)Nc1ccccc1C(=O)O)S(C)(=O)=O` gave Mtb growth inactive.
CC(=O)Nc1ccc(-c2csc(Nc3cc(C)ccn3)n2)cc1 was read as Mtb growth 5%.
For O=C(Oc1ccc2c(c1Br)CCCC2)c1cccnc1 the results were Mtb growth 9%.
Screening C=C(C)C1CCC(C)=C1COC(=O)Nc1ccccc1 (stereo not given) returned Mtb growth inactive.
`CCC(C)NC(=O)C(=O)Nc1ccc(Br)c(C)c1` (stereo not given) gave Mtb growth inactive.
CCOC(=O)c1cc(CC)sc1NC(=O)c1ccc(C)cc1 was read as Mtb growth 0%.
Screening COc1cc(C2c3c(oc4ccccc4c3=O)C(=O)N2c2nccs2)cc(Br)c1O (stereo not given) returned Mtb growth 0%.
Screening COc1ccc(CN2C(=O)N(c3ccc(F)cc3)C(=O)C2CC(=O)Nc2ccc(F)cc2)cc1 (stereo not given) returned Mtb growth inactive.
`COc1ccccc1NC(=O)CSc1nc2cc3ccccc3cc2[nH]1` gave Mtb growth 3.1µg/mL*.
`COc1ccc(-c2n[nH]c(=S)n2-c2ccc(C(C)=O)cc2)cc1` gave Mtb growth inactive.
`CCOC(=O)c1c(NC(=O)c2nc3nc(C)cc(C(F)F)n3n2)sc2c1CCCC2` gave Mtb growth inactive.
`CSc1ccc(CN2CCN(C(=O)Cc3ccccc3)CC2)cc1` gave Mtb growth inactive.
`CC(=O)Nc1ccc(-c2nc3ccccc3c(=O)[nH]2)cc1` gave Mtb growth inactive.
For NC(=O)c1cc(-c2ccc(Cl)s2)nc2ccccc12 the results were Mtb growth 16%.
For Cc1ccc(C)c(Oc2c(C(F)(F)F)oc3c(CN4CCN(C)CC4)c(O)ccc3c2=O)c1 the results were Mtb growth 3%.
For COc1ccc2[nH]cc(CCNC(C)C)c2c1 the results were Mtb growth 3%.
For COc1cc(N2C(=O)CCC2=O)ccc1NC(=O)c1ccccc1 the results were Mtb growth inactive.
For Cc1ccc(S(=O)(=O)N2CCC(C(=O)Nc3ccc(C(F)(F)F)cc3)CC2)cc1 the results were Mtb growth inactive.
For CCCN(Cc1cc2ccc(C)cc2[nH]c1=O)C(=O)c1cncc(Br)c1 the results were Mtb growth inactive.
For COc1ccc(N(CC(=O)NC(C)C)S(=O)(=O)c2ccc(C)c([N+](=O)[O-])c2)cc1 the results were Mtb growth inactive.
For S=C(NCCc1ccccc1)N1CCCCC1 the results were Mtb growth inactive.
For COc1cc2nc(NC(=O)c3ccc(Cl)cc3)[nH]c(=O)c2cc1OC the results were Mtb growth inactive.
`O=C(COc1cccc([N+](=O)[O-])c1)Nc1ccc(-c2nc3ccccc3o2)cc1` gave Mtb growth inactive.
`Cc1ccc(NC(=O)c2ccc(N)cc2)cc1C` gave Mtb growth inactive.
Screening O=C(NC(=O)C(F)(F)F)NC1CCCC1 returned Mtb growth inactive.
Screening Cn1cnc2c(cnn2-c2ccccc2)c1=O returned Mtb growth inactive.
`CCOc1ccccc1N1CCN(C(=O)c2c(-c3ccccc3Cl)noc2C)CC1` gave Mtb growth inactive.
COc1ccc(-n2c(-c3ccco3)n[nH]c2=S)cc1 was read as Mtb growth inactive.
O=C(NCc1ccc(Cl)c(Cl)c1)c1ccc(Br)o1 was read as Mtb growth 5%.
CCCCC(=O)Nc1c(C)cc(C)cc1Cl was read as Mtb growth 40%.
For CCn1c(SCC(=O)N2CCCC2)nnc1-c1ccc(N)cc1 the results were Mtb growth inactive.
CCOC(=O)c1c(C)sc2c1N(C(=O)CN(CC)CC)c1cc(Cl)ccc1S2 was read as Mtb growth 5%.
Screening Cc1ccccc1CN1C(=O)C(O)(CC(=O)c2ccccn2)c2ccccc21 (stereo not given) returned Mtb growth inactive.
For O=C(Cn1c(C(F)(F)F)nc2ccccc21)NCc1ccco1 the results were Mtb growth inactive.
CN1C(=O)c2ccc(NC(=S)NC(=O)C(C)(C)C)cc2C1=O was read as Mtb growth inactive.
Screening CCC(=O)Nc1ccc(Nc2nc(C)c([N+](=O)[O-])c(Nc3ccc(NC(=O)CC)cc3)n2)cc1 returned Mtb growth 6%.
Screening O=C1C(=O)N(c2nc3ccccc3s2)C(c2cccc([N+](=O)[O-])c2)/C1=C(/O)c1ccccc1 (stereo not given) returned Mtb growth 6%.
For C#CC(CC)(CC)NC(=O)c1cc2ccccc2oc1=O the results were Mtb growth 6%.
COC(=O)c1ccc(NC(=S)Nc2ccccn2)cc1 was read as Mtb growth inactive.
O=C1CC(N2CCN(c3ccccc3)CC2)C(=O)N1c1ccc(-c2ccccc2)cc1 (stereo not given) was read as Mtb growth 4%.
Screening COc1ccc(/C=C/C(=O)Nc2ncc(Cc3ccc(Br)cc3)s2)cc1 returned Mtb growth inactive.
Screening O=C1CC(O)(C(F)(F)C(F)F)Oc2c1ccc1ccccc21 (stereo not given) returned Mtb growth 5%.
O=C1C2C3c4ccccc4C(C(=O)O)(c4ccccc43)C2C(=O)N1c1ccc(Br)cc1 (stereo not given) was read as Mtb growth inactive.
For Cc1ccc2nc(NCc3ccccc3)[nH]c2c1 the results were Mtb growth 1.5µg/mL*.
CCc1ccccc1NC(=O)COc1ccc2c(=O)c(Oc3cc(C)ccc3C)coc2c1 was read as Mtb growth inactive.
COc1ccc(S(=O)(=O)Nc2ccc(Br)c(Cl)c2)cc1OC was read as Mtb growth inactive.
For COc1ccc(CNS(=O)(=O)c2ccc(Cl)s2)cc1 the results were Mtb growth 11%.
`CN1CCc2nc3sc(C(=O)C(C)(C)C)c(N)c3cc2C1` gave Mtb growth inactive.
`COc1ccc(CCNC(=O)c2oc3cc(C)c(C)cc3c2C)cc1OC` gave Mtb growth inactive.
Screening CCCC(=O)c1ccc(N2CCCC2)c(F)c1 returned Mtb growth inactive.
`Cc1ccc(NC(=O)C2CC=CCC2C(=O)O)cc1C` (stereo not given) gave Mtb growth inactive.
For Cc1cc(OCC(=O)O/N=C(\N)c2ccncc2)ccc1Br the results were Mtb growth inactive.
O=S(=O)(Nc1ccc(F)cc1Br)c1ccccc1 was read as Mtb growth inactive.
CCOC(=O)c1cc(CC)sc1NC(=O)C1C2CCC(C2)C1C(=O)O (stereo not given) was read as Mtb growth inactive.
Screening CCOc1cc(C=O)cc(I)c1OCC(=O)N1CCCC1 returned Mtb growth inactive.
Cc1ccc(C)c(C(=O)N2CCN(c3cccc(Cl)c3)CC2)c1 was read as Mtb growth 4%.
For COc1cc(C2NS(=O)(=O)N=C2N)cc(OC)c1OC (stereo not given) the results were Mtb growth inactive.
For CS(=O)(=O)N(CC(=O)NCc1cccnc1)c1ccc(I)cc1 the results were Mtb growth inactive.
Screening CC(=O)c1ccc(NC(=O)CCCOc2cc(C)ccc2C)cc1 returned Mtb growth inactive.
Screening COc1ccc(C(C)(C)C)cc1NC(=S)Nc1ccc(Cl)c(Cl)c1 returned Mtb growth 1.4µg/mL*.
`Cc1cc2ncn(C(=O)c3c(-c4ccccc4Cl)noc3C)c2cc1C` gave Mtb growth inactive.
For CC(=O)c1cccc(NC(=O)Cc2ccc(-c3ccccc3)cc2)c1 the results were Mtb growth inactive.
`O=C1CC(c2nc3ccccc3n2CCCOc2ccccc2)CN1c1ccccc1` (stereo not given) gave Mtb growth 0%.
For CCCc1cc(=O)[nH]c(Nc2nc(C)c3cc(OC)ccc3n2)n1 the results were Mtb growth inactive.
`O=C(Nc1ccc(C2CC2(Cl)Cl)cc1)c1ccccc1I` (stereo not given) gave Mtb growth inconclusive.
`CSc1ccc(S(=O)(=O)N2CCCC2)cc1` gave Mtb growth inactive.
Screening COC(=O)Cc1c(C)c2ccc(OCc3c(F)cccc3F)c(C)c2oc1=O returned Mtb growth inactive.
`COc1ccc(NC(=S)N2CCN(S(C)(=O)=O)CC2)cc1OC` gave Mtb growth inactive.
Screening CCN(CC)C(=O)C1=C(C)NC(=S)NC1c1ccc(C)cc1 (stereo not given) returned Mtb growth inactive.
CCC(C)NC(=O)C(=O)NC1CCCC1 (stereo not given) was read as Mtb growth inactive.
`C=CCn1c(CNC(=O)c2ccc(OC)cc2)nnc1SCC(=O)Nc1nc2ccccc2s1` gave Mtb growth inactive.
For Cc1c(Cl)cccc1-n1c(-c2cccnc2)n[nH]c1=S the results were Mtb growth inactive.
`Cc1cc(N2C(=O)C3C4CC(c5ccccc5)C(C4)C3C2=O)no1` (stereo not given) gave Mtb growth inactive.
`CN1CCN(C(=O)CN(c2ccc(Cl)c(Cl)c2)S(C)(=O)=O)CC1` gave Mtb growth inactive.
`COC(=O)CCSc1nc2sc3c(c2c(=O)n1-c1ccccc1)CCC(C(C)(C)C)C3` (stereo not given) gave Mtb growth inactive.
CC(C)NS(=O)(=O)c1ccc(OCC(=O)NC(C)c2ccccc2)cc1 (stereo not given) was read as Mtb growth inactive.
CCOc1ccccc1N(CC(=O)NCCSCc1ccccc1Cl)S(C)(=O)=O was read as Mtb growth inactive.
NC(=O)c1c(NC(=O)COc2ccc(Cl)cc2Br)sc2c1CCCC2 was read as Mtb growth inactive.
Screening Cn1nnc(NC(=O)c2cccc(OCc3ccccc3)c2)n1 returned Mtb growth inactive.
`Cc1cccc(C)c1N1CCN(S(=O)(=O)c2ccc([N+](=O)[O-])cc2)CC1` gave Mtb growth 1%.
O=C(CSc1ncn[nH]1)c1ccccc1 was read as Mtb growth inactive.
For COCc1cc(C)nc2sc(C(=O)Nc3cc(Cl)ccc3Cl)c(N)c12 the results were Mtb growth inactive.
`Cc1ccc(NC(=O)Nc2ccc3nccnc3c2)cc1C` gave Mtb growth 0%.
`COc1ccc(OCc2nc(C#N)c(N3CCN(C)CC3)o2)cc1` gave Mtb growth inactive.
For CCOC(=O)CCc1c(C)nc(SCc2ccc(C(=O)O)cc2)c(C#N)c1C the results were Mtb growth inactive.
CCOc1ccc(CC(=O)NNC(=S)NCC2CCCO2)cc1OCC (stereo not given) was read as Mtb growth inactive.
Screening Cc1ccccc1NC(=S)N1CCN(C/C=C/c2ccccc2)CC1 returned Mtb growth inactive.
